# Source: PubChem BioAssay
# CtBP-E1A blk – blocks the CtBP interaction with E1A | AlphaScreen GST-E1A/His-CtBP binding, 1536-well; active compounds read low; control for the full effect not named in the record | activity change, % (no concentration beside the values) | 340,000 compounds, 0.49% hits | AID 651724; in the data active means activity change below about -65%; inconclusive means about -30% to -65%; inactive means above about -30%; also: % is scaled to controls: 0 for no effect and ±100 for the full control effect
#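 Homogeneous bead-based format: GST-tagged E1A captured on glutathione donor beads, His-tagged CtBP on nickel acceptor beads; compounds precede bead addition by 2 h at 37 °C.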
# TRPML1 ag – activates the human TRPML1 channel; TRPML1-expressing cells, Ca2+ dye fluorescence, FDSS; host cell line not named in the record; reference of the full effect not given here; Q9GZU1; activation, % (no concentration beside the values); 410,000 compounds, 0.12% hits; in the data active = activation above about 50%; inconclusive = about 30% to 50%; inactive = below about 30%; also: 0% is about no effect; the text of the record puts the active cut at 80%
# Target sequence (Q9GZU1 whole entry, looked up): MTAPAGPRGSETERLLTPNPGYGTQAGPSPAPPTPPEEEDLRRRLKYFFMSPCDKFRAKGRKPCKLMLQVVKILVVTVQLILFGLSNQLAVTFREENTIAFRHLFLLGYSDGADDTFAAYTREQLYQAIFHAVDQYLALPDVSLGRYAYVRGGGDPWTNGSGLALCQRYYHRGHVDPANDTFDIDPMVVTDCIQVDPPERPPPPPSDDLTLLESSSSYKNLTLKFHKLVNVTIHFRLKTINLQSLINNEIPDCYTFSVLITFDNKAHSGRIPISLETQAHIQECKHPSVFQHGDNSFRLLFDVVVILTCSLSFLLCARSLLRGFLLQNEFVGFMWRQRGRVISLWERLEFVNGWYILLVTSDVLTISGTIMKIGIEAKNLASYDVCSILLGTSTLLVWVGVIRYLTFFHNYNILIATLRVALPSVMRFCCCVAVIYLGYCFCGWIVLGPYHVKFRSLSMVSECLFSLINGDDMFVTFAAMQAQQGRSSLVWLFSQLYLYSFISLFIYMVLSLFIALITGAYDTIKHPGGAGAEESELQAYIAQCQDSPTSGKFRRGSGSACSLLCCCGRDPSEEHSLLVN
#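 Kinetic FDSS Ca2+ read in Tet-induced TRPML1-DL cells (ABD Ca8 dye plus quencher, 45-90 min RT loading): baseline, then compound, then 110 s agonist window; EC80 agonist 54-4 at 4uM final added afterwards for a 110 s antagonist window.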
# PINK1 expr mod – modulators of PINK1 expression | PINK1 immunofluorescence, high-content cytometry, 24 h | Potency, µM (series often up to 76.6 µM), inactives show at the highest dose activation (PINK1 increase), hits mostly activators | 410,000 compounds, 0.2% hits | AID 624263; active = well fitted activation curve with a large enough effect; inconclusive = small, poorly fitted or top-dose-only effect; inactive = flat fitted curve, though single readings scatter; cell line not stated here;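 also: potency is read from the fitted curve at half-maximal effect; % of control where 0% means no effect; nearly all actives have a fitted effect of over 65% in size; a mitochondrial uncoupler was the plate control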
#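 Cells are seeded, rested 12 hours, then given compound at five concentrations or DMSO for 24 hours. After fixation, blocking and antibody staining, PINK1 amount and mitochondrial localization are scored; CCCP serves as control.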
# TRPML1 blocker – inhibitors of human TRPML1 channel; 390,000 compounds, 0.02% hits; TRPML1-inducible cells, Ca2+ dye fluorescence, FDSS; active compounds read low; inhibition of EC80 agonist-evoked calcium signal; activity change, negative = inhibition, % (test concentration not listed); in the data active means activity change below about -50%; inconclusive means about -30% to -50%; inactive means above about -30%;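 also: stimulus is agonist 54-4 at its EC80 concentration; % is scaled to controls: 0 for no effect and ±100 for the full control effect; compound concentration not given in the record; the text of the record puts the active cut at -80%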
#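 Calcium fluorescence in TRPML1-DL cells induced overnight with Tet: a 110 s read after compound pin addition, then a 110 s antagonist read after challenge with 54-4 at 4 uM final (EC80).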
# D2 agonist – agonists of human D2 dopamine receptor (beta-arrestin); DiscoveRx PathHunter D2 beta-arrestin, luminescence, 90 min; 100% = 57 uM dopamine signal; activation, % (test concentration not listed); 360,000 compounds, 0.084% hits; AID 624465; in the data active = activation above about 40%; inconclusive = about 15% to 40%; inactive = below about 15%; also: compound concentration not given in the record; the text of the record calls up to 30% inactive
# Target sequence (P14416 whole entry, looked up): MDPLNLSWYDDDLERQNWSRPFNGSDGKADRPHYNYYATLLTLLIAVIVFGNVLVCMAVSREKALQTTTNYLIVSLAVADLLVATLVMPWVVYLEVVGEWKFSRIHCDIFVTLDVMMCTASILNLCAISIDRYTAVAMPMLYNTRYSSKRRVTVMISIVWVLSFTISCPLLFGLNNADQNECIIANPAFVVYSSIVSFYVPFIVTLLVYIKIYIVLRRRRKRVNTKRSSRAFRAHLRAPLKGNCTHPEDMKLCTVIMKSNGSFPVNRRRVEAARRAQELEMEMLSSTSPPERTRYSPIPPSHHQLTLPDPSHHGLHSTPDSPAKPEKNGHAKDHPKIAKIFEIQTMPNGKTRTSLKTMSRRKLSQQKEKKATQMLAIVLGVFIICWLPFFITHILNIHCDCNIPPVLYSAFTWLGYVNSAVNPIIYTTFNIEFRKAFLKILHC
#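 Agonist mode: compounds alone added to overnight-plated D2 PathHunter cells for 90 min at 37 C, with 57 uM final dopamine (EC100) defining full response. Beta-arrestin recruitment detected by chemiluminescent reagent, read after 1 h at ambient temperature.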
# Six1-Eya2 blk – inhibitors of human Six1/Eya2 interaction; Q15475+O00167; AlphaScreen GST-Six1/His-Eya2 binding, biochemical; active compounds read low; control for the full effect not named in the record; activity change, % (concentration not given with the values); 360,000 compounds, 0.56% hits; AID 651725; in the data active = activity change below about -65%; inconclusive = about -30% to -65%; inactive = above about -30%; also: % is scaled to controls: 0 for no effect and ±100 for the full control effect
#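 Six1/Eya2 binding was read as AlphaScreen signal after compounds were pinned into GST-Six1 plus His-tagged Eya2 (5X stock 250/500 nM) in pH 8.0 Tris/NaCl/TCEP buffer, beads added, then incubated 1 h, 37 C, dark.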
# Numbers without * were called inactive; ? = inconclusive; . = not tested or not shown; & = joins results of further samples; [ ] = dose if it differs, or a comment.
SMILES,CtBP-E1A blk,TRPML1 ag,PINK1 expr mod,TRPML1 blocker,D2 agonist,Six1-Eya2 blk
COc1ccc(CN2C(=O)C(CC(=O)NC3CCCCC3)CC(C(=O)N(C)C)=C2C)cc1 (stereo not given),-4,.,0.1%,.,2.2,-2
Cc1cc(C(=O)COC(=O)c2cc(Cl)c(O)c(Cl)c2)c(C)n1C,-26,0.5,1.1%,-8,-1.5,?
O=C(Nc1ccc(Br)cc1)C(c1ccccc1)c1ccccc1,-1,1.0,5.8%,-1,0.1,4
CCOC(=O)c1[nH]c2ccc(F)cc2c1NC(=O)C1=COCCO1,-8,0.2,-2.2%,6,-4.4,-12
O=[N+]([O-])c1ccc(NCCNCCOc2nonc2-c2ccccc2)c([N+](=O)[O-])c1,-12,1.0,-0.1%,31,-4.3,-22
O=C(Nc1ccc2c(c1)Cc1ccccc1-2)c1ccc(Br)o1,-3,0.0,14%,-2,-2.8,5
CC(C(=O)NC(=O)NC1CCCCC1)N(C)CC(=O)Nc1ccc(F)c(F)c1F (stereo not given),3,1.4,-2.3%,13,3.2,8
CC(C)CCC(C)NC(=O)c1ccc2nccnc2c1 (stereo not given),8,-0.2,1.1%,4,3.4,-3
COC(=O)c1ccc(OC(=O)c2cnccn2)cc1,-10,0.2,1.6%,8,-1.6,0
CCC(=O)Nc1ccc(Oc2ccc3c(c2)C(=O)NC3=O)cc1,23,-0.3,1.5%[38.3 µM],10,-1.6,-4
CC(C)(C)c1ccc(C(=O)N2CCN(c3ccc(N4CCOCC4)nn3)CC2)cc1,4,2.6,1.4%,7,0.5,-2
N#Cc1ccc(CN2CCN(C(=O)CNC(=O)Cc3ccccc3)CC2)cc1,0,0.4,7.7%,1,-4.2,14
CCCCCCOc1ccc(C(=O)O)cc1,5,0.0,0.2%,-9,-1.3,-3
O=C(COC(=O)c1c(Cl)ccc(Cl)c1Cl)NC1CCS(=O)(=O)C1 (stereo not given),-2,0.8,1.3%,-11,-0.6,-2
CCOc1ccc(N=C2SCCCN2C(=O)c2c(CC)noc2C)cc1,2,0.8,2.8%,3,-3.6,-2
Cc1ccc(S(=O)(=O)NC2(C(F)(F)F)NC(=O)N(c3ccc(F)cc3)C2=O)cc1 (stereo not given),1,0.5&-0.4,-0.9%&0.2%,-13&5,1.8,5
COc1ccccc1N1CCN(C(=O)c2onc(C)c2Cl)CC1,-4,-0.4,11%,1,-4.8,5
O=C(Nc1cccc(Cl)c1)O/N=C\c1ccncc1,13,-0.3,?,5,0.7,1
COCCNC(=O)Cn1cc2c(n1)CCCCC2,-2,0.4,0.0%,4,1.4,0
CC(C)OC(=O)C1CC=CCC1C(=O)Nc1ccc(Cl)cc1 (stereo not given),12,-0.8,2.7%,?,-3.3,4
CC1CCCC(NC(=O)c2cc(S(=O)(=O)N3CCCCC3)ccc2Cl)C1C (stereo not given),2,1.0,5.0%,30,-2.6,12
CCCCNc1nc2c(S(=O)(=O)c3ccc(C)cc3)nnn2c2ccsc12,.,-0.4,2.1%,-2,.,.
CC(=O)Nc1ccc(S(=O)(=O)NCC(=O)Nc2ccc3c(c2)OCO3)cc1,5,0.3,-0.9%,-9,-2.6,8
O=C(O)c1cc2c(cc1NC(=O)c1ccccc1OC(F)F)OCCCO2,3,0.0,-0.7%,-9,0.4,-4
O=C(c1ccc(Cl)cc1)N1CCN(CCc2ccccn2)CC1,1,-0.4,0.1%,-13,-0.3,1
Cc1ccc(NNC(=O)c2c(C)noc2C)cc1Cl,.,-1.2,4.4%,-10,-8.2,26
COc1cccc(C(c2sc3nc(C)nn3c2O)N2CCN(C(=O)c3ccco3)CC2)c1 (stereo not given),0,0.2,1.9%,12,-7.0,1
Cc1ccc(CSc2nc3ccccc3c(=O)n2C)cc1,10,1.9,3.6%,?,-1.0,18
O=C(CSc1cccc[n+]1[O-])NC1CCCCCCC1,1,-0.8,0.0%,8,-1.1,4
O=C(Nc1ccc(Cl)cc1)Nc1nnc(CSCc2ccccc2Cl)s1,8,-0.1,40µM*,-10,-3.4,4

# Copied from the list:
# Six1-Eya2 blk with Cc1ccc(CSc2nc3ccccc3c(=O)n2C)cc1 = 18
# PINK1 expr mod with O=C(CSc1cccc[n+]1[O-])NC1CCCCCCC1 = 0.0%
# D2 agonist with Cc1ccc(S(=O)(=O)NC2(C(F)(F)F)NC(=O)N(c3ccc(F)cc3)C2=O)cc1 (stereo not given) = 1.8
# CtBP-E1A blk with O=C(c1ccc(Cl)cc1)N1CCN(CCc2ccccn2)CC1 = 1
# CtBP-E1A blk with CC(=O)Nc1ccc(S(=O)(=O)NCC(=O)Nc2ccc3c(c2)OCO3)cc1 = 5
# TRPML1 blocker with CCCCNc1nc2c(S(=O)(=O)c3ccc(C)cc3)nnn2c2ccsc12 = -2

# Going on with the list:
SMILES,CtBP-E1A blk,TRPML1 ag,PINK1 expr mod,TRPML1 blocker,D2 agonist,Six1-Eya2 blk
CN(CCc1cnn(C)c1)Cc1nc(Cc2ccccc2)no1,5,-0.1,-0.4%,4,0.2,2
COc1ccc(C(=O)OCc2ccccc2F)cc1S(=O)(=O)N1CCCC1,3,1.9,1.0%,72,0.6,5
O=C(COC(=O)/C=C/c1ccc(C(F)(F)F)cc1)NC1CC1,-2,0.5,-1.0%,27,0.0,11
C#CCOCCOCCOCCNc1nc(N2CCN(C(=O)C([C@@H](C)CC)n3cc(C(N)COC(=O)C(F)(F)F)nn3)CC2)nc(N2CCN(C(=O)[C@H](CCCCN)n3cc(C(N)[C@H](C)CC)nn3)CC2)n1 (stereo not given in full),-17,-0.4,1.2%,-3,-0.8,-7
Cc1nc(N2CCN(C)CC2)c2sc(=S)n(C)c2n1,-7,3.4,-3.0%,4,-3.5,1
CCc1ccc(C(=O)NNC(=O)CN2C(=O)NC3(CCCC3)C2=O)cc1,.,-0.9,-0.2%,-4,-0.7,1
CC(=O)N1CCc2cc(S(=O)(=O)NCCC3=CCCCC3)ccc21,12,-0.3,1.1%,5,-0.5,2
CCC1Oc2ccccc2N(CC(=O)NCc2ccc(C)cc2)C1=O (stereo not given),.,-0.6,-0.6%,-6,.,.
Cc1cc(=O)oc2cc(OCC(=O)NCc3ccncc3)ccc12,-4,0.5,9.4%[38.3 µM],-3,-3.9,-1
COc1ccc(N2CCN(C(=O)Cc3noc4ccc(C)cc34)CC2)cc1,.,1.8,1.6%,-12,.,.
Cc1ccc(S(=O)(=O)NCC(=O)NCc2cc(=O)n(C)c(=O)n2C)cc1,1,0.3,1.2%,1,-0.6,3
Cc1c(C(=O)c2ccccc2)c(=O)n(C)c(=O)n1C,0,-0.3,2.7%,18,1.5,1
Cc1ccc2nc(SCC(=O)NCc3cccs3)c(C#N)cc2c1,4,0.4,6.3%[38.3 µM],8,-1.9,0
CCc1cccc(NC(=O)CN(C)S(=O)(=O)c2ccc3c(c2)n(C)c(=O)c(=O)n3C)c1,.,1.8,0.1%,-7,.,.
COc1ccc(CN2CCNC(=O)C2CC(=O)NC2Cc3ccccc3C2)c(OC)c1 (stereo not given),.,-0.1,3.0%,-3,3.4,-2
COc1ccccc1-c1nnc(SCC(=O)c2c(N)n(C3CC3)c(=O)[nH]c2=O)n1C,.,-0.5,-1.0%,2,-5.3,2
CCc1ccc(CN2CCCC(C(=O)Nc3ccccc3-c3ccc(OC)cc3)C2)o1 (stereo not given),-7,-0.9,10%,-15,-1.0,-11
COc1cc(C)ccc1OCc1cc(C(=O)N(Cc2c(C)nn(C)c2C)C2CC2)no1,1,0.1,1.5%,1,2.3,1
C[C@H](NC(=O)[C@@H]1Cc2ccccc2CN1)C(=O)NC[C@H]1CC[C@H](C(=O)O)CC1,.,0.8,2.3%,-7,-4.1,9
COc1cccc(CN2CCCC(N3CCc4ccccc4C3)C2)c1O (stereo not given),-3,-0.1,-1.1%,2,4.9,0
CC(=O)Nc1cc(-c2cccc(C(=O)N(C)C)c2)cn2c(-c3ccc(C(C)=O)cc3)cnc12,1,-0.3,1.1%,.,9.4,-4
CCOC(=O)N1CCN(C(=O)CSc2nc3c([nH]c4ccccc43)c(=O)n2CC)CC1,-5,1.1,7.9%,11,-0.8,-1
O=C1NC[C@@H](CCCCN2CCN(CCc3ccccc3)C(=O)C2=O)N(CC2CCCCC2)C1=O,7,-0.3,1.4%,.,.,3
CN(CCOc1ccccc1)Cc1nc2cc(Cl)ccc2c(=O)[nH]1,1,2.3,2.1%,19,-0.6,7
Cc1ccc(S(=O)(=O)c2nc(S(C)(=O)=O)sc2NCc2ccc3c(c2)OCO3)cc1,1,2.1,-3.4%,11,-0.5,-5
COc1ccccc1C(=O)N/C(=C\c1cn(S(=O)(=O)N(C)C)c2ccccc12)C(=O)N1CCCCC1,-3,-0.6,9.6%,-1,-4.7,3
CCN(CC(=O)NC(=O)NCc1ccco1)Cc1nc2ccccc2c(=O)[nH]1,-29,0.4,-1.8%,9,0.1,-14
CC(C)OCCCNC(=O)c1ccccc1NC(=O)C1=CSCCO1,.,2.0,1.4%,12,-2.6,?
O=C(Cn1ncn2c(cc3ccccc32)c1=O)NCCCc1ccccc1,0,0.2,12%,-14,-5.1,4
CCCCCCNc1cc(C)oc(=O)c1C(C)=O,0,1.4,4.8%,28,-3.3,0

# Three of the entries above in order of the Six1-Eya2 blk value, descending.
structure	Six1-Eya2 blk
Cc1ccc(S(=O)(=O)NCC(=O)NCc2cc(=O)n(C)c(=O)n2C)cc1	3
COc1cc(C)ccc1OCc1cc(C(=O)N(Cc2c(C)nn(C)c2C)C2CC2)no1	1
O=C(O)c1cc2c(cc1NC(=O)c1ccccc1OC(F)F)OCCCO2	-4

# (cont.)
SMILES,CtBP-E1A blk,TRPML1 ag,PINK1 expr mod,TRPML1 blocker,D2 agonist,Six1-Eya2 blk
Cc1ccc(CNC(=O)CCc2nc3cccnc3n2Cc2ccccc2)cc1,.,1.9,1.9%,-6,.,.
O=C(N/N=C/c1sc(N2CCCCC2)nc1-c1cccs1)C1CC1,2,3.4,2.3%,8,-5.2,-1
CCCN(c1ccc(C)cc1)c1nc(=O)c2cccnc2s1,6,1.7,-1.1%,-13,-5.8,24
Cc1cc(C)nc(NS(=O)(=O)c2ccc(NC(=O)COc3ccccc3)cc2)n1,-6,-0.7,-4.1%,-9,-1.9,2
CC(C)CNC(=O)COc1ccccc1[N+](=O)[O-],13,-0.6,-1.6%,-3,-0.2,5
NC(=O)CSc1cn(CCNC(=O)c2cccs2)c2ccccc12,5,-0.5,-0.6%,30,-4.8,-3
Cc1ccc(S(=O)(=O)N2[C@@H](c3ccc(Cl)cc3)C(C(=O)O)=CC[C@H]2c2cccc(C)c2)cc1,6,-0.8,-1.5%,-14,-7.2,9
Cn1cccc1Cc1nnc(SCC(=O)NCC2CCCO2)n1C (stereo not given),.,0.0,-0.9%,5,-4.4,-4
CCc1ccc(Nc2nnc(SCC(=O)NCCN3C(=O)CSC3=O)s2)cc1,.,0.8,-0.4%,27,-1.8,-13
COc1ccc(OC)c(CN2CCN(CC(=O)Nc3ccccc3C(=O)NC3CC3)CC2)c1,3,1.8,3.1%,2,-0.3,1
COc1ccc(CN2C(=O)C(C)N(C(=O)c3c(F)cccc3F)c3ccccc32)cc1 (stereo not given),.,3.0,1.4%,4,-1.2,-3
